# RE007 growth inh: less growth of the S. pombe RE007 Vpr strain | Potency, µM (series often up to 92.2 µM), inactives show at the top dose activity change, negative = less growth | 0.21% of 360,000 active | AID 651644 | S. pombe RE007 Vpr strain, BacTiter-Glo ATP luminescence, 24 h; control for the full effect not named in the record; active = well fitted falling curve with a large enough effect; inconclusive = small, poorly fitted or top-dose-only effect; inactive = no such curve, though single readings can be large or run the other way;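 note: % is set by controls: 0 for no effect and ±100 for the full control effect; nearly all actives have a fitted effect of over 50% in size; the assay follows cell death caused by Vpr and the record does not say whether a fall means rescue or toxicity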
#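 Fission yeast RE007 carrying one integrated HIV-1 vpr copy, seeded at OD 0.01 in PMG+AL medium with 23 nL pinned compound. Grown 24 h at 30 degrees; viability read by BacTiter-Glo luminescence after 5 min.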
# SARS PLpro yeast: blocks SARS-CoV papain-like protease in a yeast assay | S. cerevisiae expressing SARS-CoV PLpro, growth rescue; control for the full effect not named in the record | Potency, µM (highest dose often 32.9 µM), without a hit: at the highest dose activity, positive = growth rescue | 0.19% of 330,000 active | AID 485353; active means well fitted rising curve with a large enough effect; inconclusive means small, poorly fitted or top-dose-only effect; inactive means no such curve, though single readings can be large or run the other way; note: 0% is about no effect; nearly all actives have a fitted effect of over 55% in size; growth read by luminescence after 48 h
# Cruzain inh Det: inhibitors of Trypanosoma cruzi cruzain with detergent; P25779; purified cruzain, Z-FR-AMC fluorescence, 0.01% Triton; Potency, µM, for the others: max response, negative = inhibition, hits mostly inhibitors; 0.43% of 200,000 active; AID 1478;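 note: plate controls were neutral wells for no effect and buffer without enzyme for full effect; nearly all actives have a fitted effect of over 40% in size; top concentration of the series not given in the record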
# Target sequence (P25779 123-467 limits assumed): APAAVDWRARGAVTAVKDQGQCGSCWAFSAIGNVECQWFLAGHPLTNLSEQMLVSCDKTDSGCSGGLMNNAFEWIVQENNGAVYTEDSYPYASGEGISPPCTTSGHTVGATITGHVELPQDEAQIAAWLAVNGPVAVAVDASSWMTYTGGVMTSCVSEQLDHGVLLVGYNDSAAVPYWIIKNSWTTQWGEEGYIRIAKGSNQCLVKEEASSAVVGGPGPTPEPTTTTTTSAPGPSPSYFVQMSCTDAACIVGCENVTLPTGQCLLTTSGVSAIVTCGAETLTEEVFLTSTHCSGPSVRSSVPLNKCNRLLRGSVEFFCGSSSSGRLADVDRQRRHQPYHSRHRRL
#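 Sodium acetate buffer (100 mM, pH 5.5) containing 5 mM DTT and 0.01% Triton X-100 hosted 1.5 nM cruzain and test compound for 15 min at room temperature. Cleavage of 2 uM Z-FR-AMC was then tracked by fluorescence.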
# NS1 inh: inhibitors of influenza NS1 protein function; 0.4% of 270,000 active; AID 2326; Potency, µM (top dose mostly 46.1 µM), for the others: top-dose activity, positive = more growth; S. cerevisiae slowed by influenza A NS1, growth recovery by OD600; active means well fitted rising curve with a large enough effect; inconclusive means small, poorly fitted or top-dose-only effect; inactive means no such curve, though single readings can be large or run the other way; note: nearly all actives have a fitted effect of over 50% in size
#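 Recovery from NS1-induced slow growth read by OD600 in budding yeast switched to galactose assay medium (pH 6.0, -URA) at 1:100 dilution. Compound 23 nl per well; the matching strain lacking NS1 serves as control.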
# MARV entry inh: blocks Marburg virus binding to or entry into cells. Potency, µM (doses to about 37.8 µM), for inactives: at the highest dose activity change, negative = inhibition, most hits filed as inhibitors. Marburg virus pseudotyped entry inhibition, cell reporter; control for the full effect not named in the record; about a third of the inactives were read at about 46 µM. 1.8% of 300,000 active; active = well fitted inhibition curve with a large enough effect; inconclusive = small, poorly fitted or top-dose-only effect, or effect the other way; inactive = flat fitted curve, though single readings scatter; tested in HEK293 cells; about a fifth of its hits are not listed in these tables; note: % is set by controls: 0 for no effect and ±100 for the full control effect; luciferase read-out
# Cruzain inh noDet: blocks cruzain activity in detergent-free assay. P25779. purified cruzain, Z-FR-AMC fluorescence, no detergent. Potency, µM, inactives show max response, negative = inhibition, hits mostly inhibitors. 2.3% of 200,000 active. AID 1476;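 note: plate controls were enzyme without inhibitor for no effect and buffer without enzyme for full effect; nearly all actives have a fitted effect of over 40% in size; top concentration of the series not given in the record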
#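 Detergent-free condition (0.00005% Triton X-100) in acetate buffer pH 5.5 with DTT. 1.5 nM enzyme and compound were pre-mixed 15 min, then 2 uM Z-FR-AMC substrate added; reaction progress from fluorescence change between first and third reads (60 s).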
# 2A StopGo: FMDV 2A StopGo reporter, luciferase signal. human cells with a luciferase reporter of 2A StopGo recoding; control for the full effect not named in the record. Potency, µM (highest dose often 57.9 µM), for the others: at the top dose signal change, negative = less light. 1.2% of 410,000 active; active = well fitted falling curve with a large enough effect; inconclusive = small, poorly fitted or top-dose-only effect; inactive = no such curve, though single readings can be large or run the other way; tested in HEK293T cells; note: % is set by controls: 0 for no effect and ±100 for the full control effect; nearly all actives have a fitted effect of over 45% in size; luciferase light after 4 h
# Lassa entry inh: Lassa virus entry inhibition; Lassa virus pseudotype entry inhibition, cell reporter; control for the full effect not named in the record; Potency, µM (top dose mostly 37.9 µM), inactives show top-dose activity change, negative = inhibition, most hits filed as inhibitors; 1.2% of 300,000 active; active means well fitted inhibition curve with a large enough effect; inconclusive means small, poorly fitted or top-dose-only effect, or effect the other way; inactive means flat fitted curve, though single readings scatter; tested in HEK293 cells; note: % is set by controls: 0 for no effect and ±100 for the full control effect; nearly all actives have a fitted effect of over 50% in size; luciferase read-out
# * marks the source's active call; other numbers are inactive results; u = inconclusive; x = not tested or not shown; [ ] = dose if it differs, or a comment. Unless noted, calls come from the whole dose curve; as a rule, active = well fitted curve in the direction sought with a large enough effect; inconclusive = small, poorly fitted or top-dose-only effect, or another doubt; inactive = no such curve, though single readings can be large; an effect the other way counts as inactive or inconclusive. Potency is the fitted concentration of half-maximal effect.
SMILES,RE007 growth inh,SARS PLpro yeast,Cruzain inh Det,NS1 inh,MARV entry inh,Cruzain inh noDet,2A StopGo,Lassa entry inh
CC(C)(C)N(Cc1ccccc1)C(=O)CSc1nnc(CNc2ccc(F)cc2)o1,-6%,x,-1.5%,-35%,u,-6%,u,-23%
C=CCNc1nc(Cl)ncc1F,6%,3%,0.9%,10%,16%,6%,1%,-2%
COc1ccc(C2=NN(C(=O)CN3CCCCC3)C(c3ccc(C)cc3)C2)cc1 (centres undefined),1%,0%,x,0%,u,x,13%,-20%
CCOC(=O)N1CCC2(CC1)C(C#N)=C(N)OC1=C2C(=O)CC(C)C1 (centres undefined),6%,-4%,4.7%,0%,16%,-9%,0%,-1%
COC(=O)c1sccc1NC(=O)CSc1ccccc1N,6%,-1%,x,-2%,x,x,7%,x
Cc1ccc(-n2c(Cc3cccs3)nnc2SCC(=O)OC(C)C)cc1,-9%,12%,0.4%,-89%,-21%,11%,-19%,-15%
S=C(c1ccc(Cl)cc1)N1CCOCC1,1%,1%,1.8%,-40%,2%,-11%,1%,-1%
CCOP(=O)(OCC)C(NC(=O)Nc1ccccc1)C(N)=O (centres undefined),-3%,-3%,1.5%,8%,u,8%,-14%,-2%
COc1ccc(NC(C)=O)c([N+](=O)[O-])c1[N+](=O)[O-],-6%,x,x,x,16%[46.1 µM],x,-9%,x
COc1ccc(CCNC(=O)c2c(C)nc3ccccn23)cc1OC,2%,1%,x,-1%,5%,x,-19%,13%
CCOc1ccc(C(=O)NCC(=O)OCc2c(C)noc2C)cc1OCC,-24%,6%,x,x,5%[46.1 µM],x,8%,x
CC1CN(Cc2c(O)ccc3c2oc(=O)c2ccccc23)CC(C)O1 (centres undefined),5%,2%,x,5%,x,x,-23%,x
CCNC(=O)N1CCCC(C(=O)c2ccc(OC)c(OC)c2)C1 (centres undefined),11%,-1%,x,0%,u,x,-2%,8%[46.1 µM]
Cc1cccc(Cn2c(=O)n(CCc3ccccc3)c(=O)c3sc4ccccc4c32)c1,x,x,1.1%,x,-4%[46.1 µM],-15%,1%,25%[46.1 µM]
Cc1cc(C)c(NC(=S)N(Cc2cccnc2)Cc2ccco2)c(C)c1,2%,-10%,0.4%,-5%,-9%,-4%,-27%,2%
O=C(CSc1nnc(-c2ccccc2Br)o1)Nc1nncs1,-5%,1%,x,-1%,-12%[46.1 µM],x,0%,7%
Nc1ccc(C2(c3ccc(N)cc3)C(=O)Nc3ccccc32)cc1,-6%,-2%,-2.3%,5%,-13%,-8%,x,-6%
C=C(C)C(=O)Nc1cccc(C2=NOC3(C2)C[C@@H](C(N)=O)N(C(=O)[C@H]2CCC(=O)N2)C3)c1 (some centres undefined),19%,1%,x,4%,x,x,-10%,x
O=S(=O)(Nc1cccnc1)c1ccc(C2CCCCC2)cc1,16%,-7%,-6.2%,-9%,u,2%,-31%,21%
CCc1ccccc1Nc1nn2c(=O)c3ccc(C(=O)NC(C)C)cc3nc2s1,x,x,-2.6%,x,x,1%,-12%,12%[46.1 µM]
Oc1ccc(/C=N/NP(=S)(c2ccccc2)c2ccccc2)cc1,21%,-12%,-6.0%,-51%,u,-20%,16%,-8%
O=c1c2c([nH]c3ccccc13)CCCCC2,-1%,-12%,x,-70%,17%[46.1 µM],x,-12%,7%[46.1 µM]
COc1ccc(-c2csc(NC(=O)CSc3n[nH]c(N)n3)n2)cc1,-15%,-3%,x,x,0%,x,u,-2%
CC(=O)Nc1ccc(C(=O)NNC(=O)CCCCC(=O)NNC(=O)c2ccc(NC(C)=O)cc2)cc1,10%,x,x,x,1%[46.1 µM],x,-1%,13%[46.1 µM]
CC1CN(C(=O)CSc2nc(-c3ccccc3)cs2)CC(C)O1 (centres undefined),8%,-1%,1.4%,-23%,u,5%,21%,-14%
# (listing goes on)
SMILES,RE007 growth inh,SARS PLpro yeast,Cruzain inh Det,NS1 inh,MARV entry inh,Cruzain inh noDet,2A StopGo,Lassa entry inh
CCC(C)n1nccc1NC(=O)C(C)OC(=O)c1cc2ccccc2[nH]1 (centres undefined),2%,0%,-6.7%,-8%,-28%,-1%,u,-4%
C=CCn1c(CCNC(=O)c2cccs2)nnc1SCC(=O)c1ccc(Cl)cc1,15%,-10%,-2.6%,-2%,-18%,-3%,-22%,4%
COc1cccc(N=Nc2c(N)[nH]n3c(=O)cc(-c4ccccc4)nc23)c1,-1%,-4%,0.1%,4%,3%,13µM*,-24%,-8%
OC(COc1ccc2ccccc2c1Cl)CN1CCOCC1 (centres undefined),-8%,3%,-9.1%,-5%,u,-12%,43%[activator],0%
O=C(Cn1c2ccccc2c(=O)c2ccccc21)Nc1cccc(F)c1,-13%,-23%,0.79µM*,0%,-11%,-28%,9%,-5%
CCCCn1c(NC(=O)c2ccccc2)c(C#N)c2nc3ccccc3nc21,-4%,-20%,u,-46%,u,u,x,u
CC(=O)N1CCN(c2cc3c(cc2F)c(=O)c(C(=O)O)cn3C2CC2)CC1,2%,1%,x,x,15%,x,-9%,7%
C=C(C)CNC(=S)N/N=C/c1ccccc1OCC(=O)O,24%,0%,x,x,9%,x,-3%,-14%
O=C(N/N=C/c1cccc(Oc2ccccc2)c1)c1cccc(O)c1,-8%,8%,x,0%,u,x,0%,-27%[46.1 µM]
Cc1c([N+](=O)[O-])c(C(=O)Nc2ccc3c(c2)OCCO3)nn1C,-9%,-8%,-1.9%,4%,u,5%,60%[activator],13%
CC(C)CN1C(=O)c2ccc(NC(=O)c3ccco3)cc2C1=O,2%,-4%,x,-35%,u,x,61%[activator],27%
CCN(c1cccc(C)c1)C(CNS(=O)(=O)c1ccccc1)c1ccccc1 (centres undefined),x,x,-12%,x,u,5%,19%,-29%[46.1 µM]
CCC(C)N1CC(=O)N2C(c3ccc(OC)cc3OC)c3[nH]c4ccccc4c3C[C@H]2C1=O (some centres undefined),0%,1%,x,12%,x,x,30%,x
CCN(CC)CC(O)COc1ccc2c(c1)OCO2 (centres undefined),15%,-5%,0.3%,0%,u,-7%,-19%,2%
CCSc1cnnc2ccccc12,5%,x,x,x,28%[46.1 µM],x,-7%,4%[46.1 µM]
COc1ccc2c(c1OC)C(=O)N1C2SC(C)(C)[C@H]1C(=O)NC(C)C (some centres undefined),13%,5%,x,-1%,x,x,14%,x
O=C(NCCOc1ccc(Cl)cc1)c1ccco1,15%,-4%,x,-28%,-5%[46.1 µM],x,25%,28%
O=C(Nc1ccc(S(=O)(=O)N2CCc3ccccc3C2)cc1)C1CCCO1 (centres undefined),10%,x,-1.1%,-9%,22%,u,-9%,-4%
Cc1ccc(S(=O)(=O)CC(=O)c2ccccc2)cc1,14%,7%,3.8%,3%,22%,4%,37%[activator],-13%
CN(CC(N)=O)S(=O)(=O)c1ccc(F)cc1,-5%,2%,-0.2%,9%,u,-16%,-12%,5%
O=C(C1CCC(C(=O)N2CCc3ccccc32)CC1)N1CCc2ccccc21 (centres undefined),-1%,3%,-2.6%,2%,0%,12%,-22%,1%
COC(=O)c1ccc(NC(=O)[C@H](C)NC(N)=O)cc1,3%,0%,x,-2%,x,x,-15%,x
CCC(C(=O)Nc1cc(OC)c(NC(=O)c2ccccc2)cc1OC)c1ccccc1 (centres undefined),3%,9%,x,29%,1%[46.1 µM],x,-29%,u
CCC(CC)c1nnc(NC(=O)C2CCN(C(=O)c3ccco3)CC2)s1,-23%,3%,x,21%,-4%[46.1 µM],x,-20%,u
Cc1cc(/C=C(/C#N)c2nc3ccccc3[nH]2)c(C)n1-c1cc(C(=O)O)cc(C(=O)O)c1,29%,1%,x,6%,14%[46.1 µM],x,-6%,19%[46.1 µM]
# (further entries)
SMILES,RE007 growth inh,SARS PLpro yeast,Cruzain inh Det,NS1 inh,MARV entry inh,Cruzain inh noDet,2A StopGo,Lassa entry inh
CCCCC(=O)NC1(C(F)(F)F)C(=O)Nc2c1c(=O)[nH]c(=O)n2Cc1ccco1 (centres undefined),-10%,3%,1.4%,0%,17%[46.1 µM],3%,13%,22%
COCCN(C(=O)c1ccc(C)c(S(=O)(=O)N2CCOCC2)c1)c1c(N)n(CC(C)C)c(=O)[nH]c1=O,-12%,x,x,x,u,x,-4%,5%
Cc1ccc(-c2nc(-c3ccncc3)no2)c(Cl)c1,-10%,2%,x,-35%,x,x,-23%,x
CC(NC(=O)c1cc(Br)cs1)C1CCCO1 (centres undefined),17%,7%,x,-11%,5%,x,4%,9%
Cc1ccc(NC(=O)CSc2ccc(-c3ccccn3)nn2)c(C)c1,-5%,1%,x,12%,x,x,-10%,x
Cc1ccc(-n2c(C)cc(/C=C3\SC(=O)NC3=O)c2C)cc1,21%,-4%,x,-3%,x,x,56%[activator],x
Cc1ccc(C(C)NC(=O)c2ccc3c(c2)OCO3)cc1C (centres undefined),14%,-5%,x,-25%,x,x,-20%,x
Cc1cccc(NP(=O)(Oc2ccccc2F)Oc2ccccc2F)c1,4%,-17%,-10%,-6%,u,2%,2%,u
COc1cc(CNCCSc2nnnn2C)ccc1OCc1c(F)cccc1Cl,x,x,0.5%,x,-8%[46.1 µM],13%,-21%,-10%[46.1 µM]
CCOC(=O)c1nn(-c2cccc(OC)c2)c2nc(CC)c(C#N)c(=O)n12,-9%,-18%,0.6%,22%,3%,-5%,-15%,5%
COc1ccc(OC)c(NC(=O)CN2C(=O)CC(c3ccco3)Sc3ccccc32)c1 (centres undefined),x,x,-7.4%,x,u,8%,-9%,x
O=C(Nc1ccc2nc(-c3cccs3)[nH]c2c1)c1ccco1,-2%,-22%,-22%,1%,6%,20µM*,13%,28%
Cc1ccc(NC(=O)N(Cc2cccs2)Cc2cc3cc4c(cc3[nH]c2=O)OCO4)cc1,x,u,0.0%,4%,-25%,u,x,-4%

# Rows were taken by chance (roughly 4.7% active in at least one column).
